NPYLR7 agonist = mosquito NPYLR7 agonism; HEK293T NPYLR7/Galpha15, GCaMP6s calcium fluorescence; activation, % at 10 µM; 270,000 compounds, 0.15% hits; in the data active means activation above about 40%;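 further: 0% = vehicle and 100% = reference agonist at the receptor; some compounds past the cut are filed as inactive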
NPYLR7 agonist max-min = further read-out of NPYLR7 agonist, marked with its call; activation, %; measured here: Max-Min RFU normalised activation; some inactives read as strong as hits;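 span of the calcium signal over five minutes; 0% = vehicle and 100% = native peptide agonist; compound fluorescence can raise it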
The depositor's hits bear a star; & = joins results of further samples. Only part of the results is shown; the hit share may differ from the screen's.

`CC(C)N1CCC(CNC(=O)/C=C/c2ccc(C#N)cc2)C1` (stereo not drawn) gave NPYLR7 agonist 0 and NPYLR7 agonist max-min 1.
C=CCn1c(SCC(=O)Nc2cccc(O)c2)nc2sc3c(c2c1=O)CCC3 was read as NPYLR7 agonist 3 and NPYLR7 agonist max-min 12.
O=C(O)CN1C(=O)c2ccccc2S1(=O)=O was read as NPYLR7 agonist 19 and NPYLR7 agonist max-min 15.
`Cc1ccc(-n2cc(-c3ccccc3)c3c(NCCCO)ncnc32)cc1Cl` gave NPYLR7 agonist -3 and NPYLR7 agonist max-min -2.
`CCn1cc(/C=N/NC(=O)c2ccc(C(C)(C)C)cc2)cn1` gave NPYLR7 agonist -1 and NPYLR7 agonist max-min 4.
`Cc1ccc(/C=C/S(=O)(=O)Nc2cnn(CC3CCCO3)c2)cc1` (stereo not drawn) gave NPYLR7 agonist -3 and NPYLR7 agonist max-min -3.
Screening Cc1nc(CC(=O)N(CC#Cc2ccccc2)C2CCCC2)cs1 returned NPYLR7 agonist -5 and NPYLR7 agonist max-min -4.
For CCc1nnc(-c2cc3ccccc3n2CC(=O)N2CCCCCC2)o1 the results were NPYLR7 agonist -8 and NPYLR7 agonist max-min -7.
`Cc1c(-c2ccccc2)c(=O)oc2c3c(ccc12)OCN(CCCN1CCOCC1)C3` gave NPYLR7 agonist -9 and NPYLR7 agonist max-min -15.
`O=C(c1cc(-c2ccccc2Cl)nn1-c1cccc([N+](=O)[O-])c1)N1CCN(c2cccc(Cl)c2)CC1` gave NPYLR7 agonist 1 and NPYLR7 agonist max-min 7.
For COc1ccccc1N1CCN(c2ccc(NC(=O)c3cccc(C(F)(F)F)c3)cc2C(=O)NC2CC2)CC1 the results were NPYLR7 agonist 19 and NPYLR7 agonist max-min 29.
For CCN(C)C(C(=O)OCC(=O)NCC(F)(F)F)c1ccccc1 (stereo not drawn) the results were NPYLR7 agonist 4 and NPYLR7 agonist max-min 1.
`O=C(CNC(=O)c1ccco1)NNC(=O)c1ccc(Br)s1` gave NPYLR7 agonist 5 and NPYLR7 agonist max-min 2.
O=C(CCc1nnc(Cc2c[nH]c3ccccc23)o1)NCc1ccccc1F was read as NPYLR7 agonist 7 and NPYLR7 agonist max-min 12.
Screening CCOc1ccc(-c2ccnc(N3CCN(S(=O)(=O)c4ccc(C(F)(F)F)cc4Cl)CC3)n2)cc1 returned NPYLR7 agonist 9 and NPYLR7 agonist max-min -1.
CC(C)Cn1cnnc1C1CCCN1Cc1cnn(C)c1 (stereo not drawn) was read as NPYLR7 agonist 2 and NPYLR7 agonist max-min 1.
COc1cc(C(=O)NNC(=O)CC23CC4CC(CC(C4)C2)C3)cc(OC)c1OC was read as NPYLR7 agonist -1 and NPYLR7 agonist max-min -1.
Cc1nnc(CSc2nc3scc(-c4ccccc4)c3c(=O)[nH]2)o1 was read as NPYLR7 agonist 8 and NPYLR7 agonist max-min 3.
For C=CCn1c(SCc2cc3c(cc2Br)OCO3)nnc1-c1ccncc1 the results were NPYLR7 agonist 6 and NPYLR7 agonist max-min 9.
For NC(=O)CSc1nc2c(c(=O)[nH]1)C(C1CCCCC1)Cc1ccccc1-2 (stereo not drawn) the results were NPYLR7 agonist 0 and NPYLR7 agonist max-min 1.

Ten structures out of the list, ordered by heavy-atom count, ascending.
O=C(O)CN1C(=O)c2ccccc2S1(=O)=O was read as NPYLR7 agonist 19 and NPYLR7 agonist max-min 15.
`CCn1cc(/C=N/NC(=O)c2ccc(C(C)(C)C)cc2)cn1` gave NPYLR7 agonist -1 and NPYLR7 agonist max-min 4.
For CCN(C)C(C(=O)OCC(=O)NCC(F)(F)F)c1ccccc1 (stereo not drawn) the results were NPYLR7 agonist 4 and NPYLR7 agonist max-min 1.
Screening Cc1nc(CC(=O)N(CC#Cc2ccccc2)C2CCCC2)cs1 returned NPYLR7 agonist -5 and NPYLR7 agonist max-min -4.
For NC(=O)CSc1nc2c(c(=O)[nH]1)C(C1CCCCC1)Cc1ccccc1-2 (stereo not drawn) the results were NPYLR7 agonist 0 and NPYLR7 agonist max-min 1.
C=CCn1c(SCC(=O)Nc2cccc(O)c2)nc2sc3c(c2c1=O)CCC3 was read as NPYLR7 agonist 3 and NPYLR7 agonist max-min 12.
COc1cc(C(=O)NNC(=O)CC23CC4CC(CC(C4)C2)C3)cc(OC)c1OC was read as NPYLR7 agonist -1 and NPYLR7 agonist max-min -1.
`Cc1c(-c2ccccc2)c(=O)oc2c3c(ccc12)OCN(CCCN1CCOCC1)C3` gave NPYLR7 agonist -9 and NPYLR7 agonist max-min -15.
Screening CCOc1ccc(-c2ccnc(N3CCN(S(=O)(=O)c4ccc(C(F)(F)F)cc4Cl)CC3)n2)cc1 returned NPYLR7 agonist 9 and NPYLR7 agonist max-min -1.
For COc1ccccc1N1CCN(c2ccc(NC(=O)c3cccc(C(F)(F)F)c3)cc2C(=O)NC2CC2)CC1 the results were NPYLR7 agonist 19 and NPYLR7 agonist max-min 29.

Additional records
`CCOc1ccccc1N1CCN(C(=O)c2cc(-c3ccc(OC)cc3OC)nn2-c2ccc(Cl)c(Cl)c2)CC1` gave NPYLR7 agonist 0 and NPYLR7 agonist max-min 8.
For CN(C)CCCN(C(=O)CCOc1ccccc1)c1nc2c(F)cccc2s1 the results were NPYLR7 agonist 7 and NPYLR7 agonist max-min 6.
`Cc1nc2c(C)cccn2c(=O)c1NC(=O)C(c1ccccc1)c1ccccc1` gave NPYLR7 agonist 3 and NPYLR7 agonist max-min 1.
Screening CCN(CC(=O)Nc1ccccc1C(F)(F)F)S(=O)(=O)c1cccc(C#N)c1 returned NPYLR7 agonist 6 and NPYLR7 agonist max-min 5.
CSc1ccccc1C(=O)Nc1c2c(nn1CC(=O)NCc1ccccc1)CSC2 was read as NPYLR7 agonist -4 and NPYLR7 agonist max-min -1.
For CCOc1ccc(CN2CCN(Cc3nc4c(s3)CCCC4)CC2CCO)cc1 (stereo not drawn) the results were NPYLR7 agonist 7 and NPYLR7 agonist max-min 3.
N#CC1C(=N)Oc2n[nH]c(-c3ccc4c(c3)OCO4)c2C1c1ccco1 (stereo not drawn) was read as NPYLR7 agonist 10 and NPYLR7 agonist max-min 4.
Screening CCOC(=O)CCC(=O)Nc1cccc(C2SCC(=O)N2c2ccc(C)c(F)c2)c1 (stereo not drawn) returned NPYLR7 agonist -7 and NPYLR7 agonist max-min 5.
`COCc1ccc(CN2CCC3(CC2)C(=O)N(C2Cc4ccccc4C2)C(=O)N3CC(C)C)o1` gave NPYLR7 agonist 9 and NPYLR7 agonist max-min -2.
Screening CCOC(=O)N1CCN(S(=O)(=O)c2ccc3ccccc3c2)CC1 returned NPYLR7 agonist -7 and NPYLR7 agonist max-min 11.
COc1ccc(-c2ccc(/C=C3\C(=O)N(c4cccc(Cl)c4)N=C3C)o2)cc1[N+](=O)[O-] was read as NPYLR7 agonist 1 and NPYLR7 agonist max-min -12.
For CCOC(=O)c1nn(-c2ccccc2C)c(=O)cc1OCc1ccc(C)cc1 the results were NPYLR7 agonist 15 and NPYLR7 agonist max-min 9.
O=C(NCCc1ccccc1)C(C1CCCC1)N1CCN(C(=O)C2CCC2)CC1 (stereo not drawn) was read as NPYLR7 agonist -3 and NPYLR7 agonist max-min 1.
CC1(C)OCC(C2OC(Nc3ccc(CCCC(=O)NCCCn4ccnc4)cc3)[C@H]3OC(C)(C)O[C@@H]23)O1 (stereo partly drawn) was read as NPYLR7 agonist -4 and NPYLR7 agonist max-min -8.
Screening COc1cccc(C(NC(=O)C2CCN(CCCc3ccccc3)CC2)c2ccccn2)c1 (stereo not drawn) returned NPYLR7 agonist 14 and NPYLR7 agonist max-min 1.
Screening CC(C)c1nccn1CCCNC(=O)c1ccc(N2CCc3[nH]ncc3C2)nc1 returned NPYLR7 agonist 5 and NPYLR7 agonist max-min -4.
CCCn1nnnc1CS(=O)C(C)C(=O)Nc1ccccc1 (stereo not drawn) was read as NPYLR7 agonist 2 and NPYLR7 agonist max-min 0.
Screening O=C(c1cc(COc2cccc3cccnc23)on1)N1C[C@H]2CC[C@H]1C2 returned NPYLR7 agonist 18 and NPYLR7 agonist max-min 7.
CCc1nc2c(cnn2-c2ccc(F)cc2)c(=O)n1-c1ccc(C)cc1 was read as NPYLR7 agonist -3 and NPYLR7 agonist max-min -3.
COc1cc(Cl)c(C)cc1NC(=O)CN1CC(C)CC(C)C1 (stereo not drawn) was read as NPYLR7 agonist -5 and NPYLR7 agonist max-min -10.
CC(C)Nc1cc(N2CC(c3ccccn3)C2)ncn1 was read as NPYLR7 agonist 4 and NPYLR7 agonist max-min 1.
c1ccc(C2=NN3C(C2)c2ccccc2OC3c2cccs2)cc1 (stereo not drawn) was read as NPYLR7 agonist -27 and NPYLR7 agonist max-min -30.
Screening O=C(CNC(=O)c1ccoc1)NC1CCCc2ccccc21 (stereo not drawn) returned NPYLR7 agonist 1 and NPYLR7 agonist max-min -1.
For Cc1cc(CNC(=O)C2CCN(c3nc(-c4ccccc4)nc4c3CCC4)CC2)nn1C the results were NPYLR7 agonist -2&0 and NPYLR7 agonist max-min -5&-1.
`Cc1ccoc1C(=O)NC1CCN(c2ccc(Cl)c(C#N)n2)CC1` gave NPYLR7 agonist 7&-7 and NPYLR7 agonist max-min 3&-6.
Cc1ccc(C)c(NC(=O)CC(C(=O)O)N2CCNCC2)c1 (stereo not drawn) was read as NPYLR7 agonist 4 and NPYLR7 agonist max-min 4.
`NC1CCCN(C(=O)Cn2cnc3ccsc3c2=O)CC1` (stereo not drawn) gave NPYLR7 agonist 3 and NPYLR7 agonist max-min 4.
Screening Cn1cccc1C(=O)NC(=O)COC(=O)C12CC3CC(CC(Cl)(C3)C1)C2 returned NPYLR7 agonist -3 and NPYLR7 agonist max-min -4.
Screening CCC(=O)c1ccc2c(c1)N(CCCN(C)C)c1ccccc1S2 returned NPYLR7 agonist 4 and NPYLR7 agonist max-min -5.
Screening C=C(C)CNC(=O)c1ccc2oc(CCCC)nc2c1 returned NPYLR7 agonist 3 and NPYLR7 agonist max-min -2.
For CCC(C(=O)c1ccc2ncccc2c1)c1ccccc1 (stereo not drawn) the results were NPYLR7 agonist -7 and NPYLR7 agonist max-min -10.
CC(=O)c1ccc(N=Nc2c(-c3ccccc3)[nH]n(-c3ccccc3)c2=O)cc1 was read as NPYLR7 agonist 4 and NPYLR7 agonist max-min 7.
`CCCCS(=O)(=O)N1CCN(c2ncccc2NC(=O)c2ccc3c(c2)OCO3)CC1` gave NPYLR7 agonist 29 and NPYLR7 agonist max-min 34.
For CCCSc1nnc(NC(=O)C(C)(C)C)s1 the results were NPYLR7 agonist -1 and NPYLR7 agonist max-min -8.
`COc1ccccc1C(=O)N(CC(=O)N1CCc2sccc2C1c1ccccc1C)Cc1ccco1` (stereo not drawn) gave NPYLR7 agonist 3 and NPYLR7 agonist max-min 2.
Screening c1cc(-c2nccn2Cc2ccco2)cc(-n2cccn2)c1 returned NPYLR7 agonist 1 and NPYLR7 agonist max-min 1.
For CCC(NCCOC)c1nc2cc(Cl)ccc2c(=O)[nH]1 (stereo not drawn) the results were NPYLR7 agonist -17 and NPYLR7 agonist max-min -10.
Screening COC(=O)N=C(Cc1ccc(OC)cc1)c1ccc(OC)cc1 returned NPYLR7 agonist 7 and NPYLR7 agonist max-min 3.
Screening CCCOC1CCCN(C(=O)CCNC(=O)c2ccc(F)cc2)C1 (stereo not drawn) returned NPYLR7 agonist 11 and NPYLR7 agonist max-min 7.
Screening CCOc1ccccc1NC(=O)c1c(-c2ccccc2Cl)noc1C returned NPYLR7 agonist -5 and NPYLR7 agonist max-min -5.
Screening Nc1nc2c(c(=O)[nH]1)N(C=O)C(CNc1ccc(C(=O)N[C@@H](CCC(=O)O)C(=O)O)cc1)CN2 (stereo partly drawn) returned NPYLR7 agonist -6&17 and NPYLR7 agonist max-min -14&12.
Screening COC(=O)c1ccc(C(=O)OC)c(NC(=O)CSc2nc(C)nc3sc4c(c23)CCCC4)c1 returned NPYLR7 agonist -7 and NPYLR7 agonist max-min -13.
`Cn1ccnc1SCCNc1cc(N2CCOCC2)ncn1` gave NPYLR7 agonist 2 and NPYLR7 agonist max-min -2.
`O=C(Nc1ccc(F)cc1)C(C1CCCC1)N1CCN(C(=O)c2ccc(Cl)c(Cl)c2)CC1` (stereo not drawn) gave NPYLR7 agonist 4 and NPYLR7 agonist max-min 9.
For C=CCN(CC(=O)N1CCc2sccc2C1c1ccccc1C)C(=O)c1ccc([N+](=O)[O-])cc1 (stereo not drawn) the results were NPYLR7 agonist 14 and NPYLR7 agonist max-min 19.
For NS(=O)(=O)c1ccc(CCNC(=O)/C=C/C2CCCCC2)cc1 the results were NPYLR7 agonist -6 and NPYLR7 agonist max-min -7.
`CCc1cc(NC(=O)N(C)Cc2ncc(CC)s2)n(C)n1` gave NPYLR7 agonist -1 and NPYLR7 agonist max-min -1.
Screening COc1cc(NC(=O)C(C2CCCC2)N2CCN(C(=O)c3ccccc3Cl)CC2)cc(OC)c1 (stereo not drawn) returned NPYLR7 agonist 13 and NPYLR7 agonist max-min 17.
O=C(CSc1nnc(-c2ccccc2)n1-c1ccccc1)N/N=C\c1ccco1 was read as NPYLR7 agonist -5 and NPYLR7 agonist max-min -10.
Screening CSc1ccc(CN(C)C(=O)Cc2cccc(C(F)(F)F)c2)cc1 returned NPYLR7 agonist -1 and NPYLR7 agonist max-min -12.
For O=C(NCc1ccc(F)cc1)Nc1ccc(NS(=O)(=O)c2ccc(Cl)s2)cc1 the results were NPYLR7 agonist 15 and NPYLR7 agonist max-min 10.
Screening CC(C(=O)NC1CCN2CCCCC12)S(=O)(=O)c1ccc(F)cc1 (stereo not drawn) returned NPYLR7 agonist 2 and NPYLR7 agonist max-min 3.
For CCN1C(=O)N(C2Cc3ccccc3C2)C(=O)C12CCN(C1CCOCC1)CC2 the results were NPYLR7 agonist 19 and NPYLR7 agonist max-min 10.
Cc1ccc(N2CC(CNS(=O)(=O)N(C)C)CC2=O)cc1 (stereo not drawn) was read as NPYLR7 agonist 3 and NPYLR7 agonist max-min 4.
`COCCNc1cc(-c2ccc3cc[nH]c(=O)c3c2)c2cc[nH]c2n1` gave NPYLR7 agonist 6 and NPYLR7 agonist max-min 3.
Screening c1ccc(CN2CN=C(Nc3nc4ccccc4o3)NC2)cc1 returned NPYLR7 agonist 1 and NPYLR7 agonist max-min -1.
